VDR inhibitor: inhibitors of human vitamin D receptor. P11473. VDR-SRC2-3 peptide fluorescence polarization, 2 h. Potency, µM, inactives show max response, negative = inhibition, most hits filed as inhibitors. 400,000 tested, 0.93% active; active means well fitted inhibition curve with a large enough effect; inconclusive means small, poorly fitted or top-dose-only effect, or another doubt; inactive means no such curve, though single readings can be large or run the other way; further: series mostly up to about 120 µM
Target sequence (P11473 whole entry, looked up): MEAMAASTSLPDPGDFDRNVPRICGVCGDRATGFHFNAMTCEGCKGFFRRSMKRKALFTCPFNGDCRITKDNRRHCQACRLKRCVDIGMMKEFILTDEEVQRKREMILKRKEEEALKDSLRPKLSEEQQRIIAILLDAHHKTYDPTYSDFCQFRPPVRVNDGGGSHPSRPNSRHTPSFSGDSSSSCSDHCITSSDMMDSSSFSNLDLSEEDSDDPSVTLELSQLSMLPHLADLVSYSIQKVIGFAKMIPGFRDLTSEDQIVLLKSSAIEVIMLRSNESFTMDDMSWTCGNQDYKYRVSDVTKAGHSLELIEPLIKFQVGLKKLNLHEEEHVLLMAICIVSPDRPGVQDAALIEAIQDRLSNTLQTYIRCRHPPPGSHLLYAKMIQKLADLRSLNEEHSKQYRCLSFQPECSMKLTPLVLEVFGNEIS
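Compounds are added to VDR with labelled SRC2-3 coactivator peptide and held 2 h at room temperature. Inhibition of the VDR–peptide interaction is then read as a change in fluorescence polarization.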
* hit, by the source's call; ? = inconclusive; & = joins results of further samples. On the % scale 0 is the no-effect control and ±100 the full control effect; potency means the concentration at half of the fitted maximal effect. This is a subset; rates above refer to the full screens.

SMILES | VDR inhibitor
CC(C)(C)NC(=O)C(OC(=O)c1ccco1)c1ccccc1F (configuration not stated) | -6%
CCn1cc(CN2CCN(Cc3ccc(C)o3)C(CCO)C2)c2ccccc21 (configuration not stated) | 14%
CC(C)(C)NC(=O)NC(=O)COC(=O)Cn1cnc2ccccc2c1=O | -16%
COc1ccc(C(=O)N/C(=C\c2ccccc2)C(=O)NCCCn2ccnc2)cc1 | -9%
COC(=O)c1nnn(-c2nonc2N)c1CSc1nnc(C)s1 | 6%
CCOc1cc(/C=C2\COc3ccccc3C2=O)cc(Br)c1OCC(=O)N(C)C | 20µM*
Cc1nn(C(C)C(=O)N2CCN(c3ccc(Cl)cc3)CC2)c(=O)c2cc3occc3n12 (configuration not stated) | 7%
COc1ccc(NC(=O)C(CCCCNC(=O)OC(C)(C)C)NC(=O)OCc2ccccc2)cc1 (configuration not stated) | -8%
Cc1cccc(-c2noc(-c3cc(C(C)C)[nH]n3)n2)c1 | 10%
Cc1ccc(CNC(=O)CO/N=C/c2ccc3c(c2)OCO3)cc1 | -20%
COc1cccc(/C=N/NC(=O)CSc2nnc(C)n2-c2ccccc2)c1O | 5%
CCOC(=O)c1c(NC(=O)CSc2nnc(-c3cccnc3)n2Cc2ccco2)sc(C)c1C | 4%
Cc1cc([N+](=O)[O-])cc2c1NC(c1ccccn1)C1CC=CC21 (configuration not stated) | -19%
N#Cc1ccc(OCC(=O)NC2CCCCCC2)cc1 | 10%
O=[N+]([O-])c1ccccc1CN1CCN(Cc2ccccn2)CC1 | 10%
O=C(COC(=O)CCc1ccc(S(=O)(=O)N2CCOCC2)cc1)Nc1cccc(Cl)c1 | -25%
CCCCCCSc1ccc(-c2nc3ccc(Cl)cn3c2NCCCC)cc1OC | -21%
Cc1ccnc(SCC(=O)Nc2cc(C)on2)n1 | 0%
COc1ccc(/C=C2\C(=O)ON=C2c2ccccc2)cc1OC | 35µM*
CC(=O)Nc1ccc(S(=O)(=O)NC2=NCN(c3ccc([N+](=O)[O-])cc3)CN2)cc1 | ?
N#Cc1cccc(C#N)c1NCC1CCCO1 (configuration not stated) | 2%
O=C(CCS(=O)(=O)c1cccc2nonc12)NCc1ccc(Cl)cc1 | -7%
CN(C)C(=O)CSc1nc2cc(S(=O)(=O)N3CCOCC3)ccc2o1 | ?
Cc1ccc(NC(=O)CSCc2nc3c(nnn3Cc3ccc(F)cc3)c(=O)[nH]2)c(C)c1 | 16%
Cc1ccc(C(=O)Nc2cccc([N+](=O)[O-])c2)cc1S(=O)(=O)Nc1ccc(C(=O)O)cc1 | -11%

Part of the list above, set out differently.
VDR inhibitor	Molecule
-16%	CC(C)(C)NC(=O)NC(=O)COC(=O)Cn1cnc2ccccc2c1=O
-25%	O=C(COC(=O)CCc1ccc(S(=O)(=O)N2CCOCC2)cc1)Nc1cccc(Cl)c1
35µM*	COc1ccc(/C=C2\C(=O)ON=C2c2ccccc2)cc1OC
14%	CCn1cc(CN2CCN(Cc3ccc(C)o3)C(CCO)C2)c2ccccc21 (configuration not stated)
-19%	Cc1cc([N+](=O)[O-])cc2c1NC(c1ccccn1)C1CC=CC21 (configuration not stated)
?	CN(C)C(=O)CSc1nc2cc(S(=O)(=O)N3CCOCC3)ccc2o1
10%	Cc1cccc(-c2noc(-c3cc(C(C)C)[nH]n3)n2)c1

(next part)
SMILES | VDR inhibitor
CC(C)CN1CCCC2(CCN(C(=O)c3csnn3)CC2)C1 | -2%
COc1ccc(CNC(=O)C2CCCN(C(=O)N3CCOc4ccccc43)C2)cc1 (configuration not stated) | 5%
CCn1cnc2cc(NCc3ccc(N(C)C)cc3)ccc21 | 8%&-2%
O=C(Cc1ccccc1Cl)Nc1cccc(S(=O)(=O)N2CCOCC2)c1 | 7%
COc1cc(NS(=O)(=O)c2cc(NC(C)=O)ccc2OC)c(OC)cc1NC(=O)c1ccccc1 | -5%
COc1ccc(N(CC(=O)NC2CCS(=O)(=O)C2)S(=O)(=O)c2ccc(Cl)c(Cl)c2)cc1 (configuration not stated) | 0%
O=C(OCC(=O)N1CCN(c2ccccc2)CC1)c1ccc([N+](=O)[O-])s1 | -29%
O=C(COc1ccccc1Cl)Nc1ccc(C(=O)c2ccc(C(=O)O)cc2)cc1 | -6%
COc1ccc(NC(=O)CCN2CCN(S(=O)(=O)c3ccc(F)cc3)CC2)cc1 | 8%
Cc1cccc(N2C(=O)CN(Cc3ccccc3)C2=S)c1 | 12%
CCOc1ccccc1CNC(=O)c1cn(C)c(=O)c2c1c1ccccc1n2C | -7%
COC(=O)c1ccc(SCc2cnc(Cl)s2)cc1 | 25%
O=C(O)CC(NCc1ccco1)C(=O)OCC1CCCO1 (configuration not stated) | 16%
COc1ccc(C(NC(N)=O)c2ccccc2)cc1 (configuration not stated) | -13%
C/C(CC(=O)Nc1cccc(Cl)c1Cl)=N\NC(=O)C(=O)N1CCCC1 | -10%
COc1ccc(-n2c(=O)c3ccccc3n(Cc3cccc(C)c3)c2=O)cc1OC | 1%
O=C(c1cc(COc2ccc(F)cc2F)on1)N1CCN(C2CCCC2)C(=O)C1 | -10%
C=CCN1C(=O)c2ccc(C(=O)N3CCN(S(=O)(=O)c4ccc(C(C)C)cc4)CC3)cc2C1=O | 5%
O=C(Nc1cccnc1)c1c(F)cccc1F | -5%
CC(=O)Nc1ccc(S(=O)(=O)Nc2cccc(NC(=O)c3ccco3)c2)cc1 | 15%
Cc1cccc(NC(=O)CN(C)S(=O)(=O)c2cccc3nsnc23)c1C | 2%
CC(=O)c1ccc(OCc2cc(C(=O)NC(C)Cc3ccccn3)no2)cc1 (configuration not stated) | -3%
CCN(C(=O)COC(=O)c1cccc(S(=O)(=O)N(C)C)c1)c1c(N)n(Cc2ccccc2)c(=O)[nH]c1=O | ?
CCOc1ccc(Oc2ccc(S(=O)(=O)N3CCOCC3)cc2NC(=O)C2=COCCO2)cc1 | -17%
O=C(O)CC(Cc1ccc(Br)cc1)C(=O)O (configuration not stated) | -2%

(more compounds)
SMILES | VDR inhibitor
O=C(COC(=O)c1ccc(S(=O)(=O)N2CCCC2)cc1)NCc1cccs1 | 15%
CN(C)c1cc(NC(=O)CNC(C)(C)CC(C)(C)C)c2ccccc2n1 | -4%
CSc1cccc(NC(=O)CSc2ncccc2C(=O)Oc2cccc([N+](=O)[O-])c2)c1 | -4%
CCOc1c(C)cc(S(=O)(=O)NCc2ccccn2)c(C)c1C | -16%
CCOc1ccccc1NS(=O)(=O)c1c(C)[nH]c(C)c1C(=O)N1CCCCC1 | 1%
CCOC(=O)c1cc(-c2ccccc2)sc1NC(=S)Nc1cc(C)ccn1 | 14%
Cc1ccc2c(c1)cc1c(=O)n(Cc3ccccc3Cl)nc(C)n12 | 16%
CCCCCC(=O)NNC(=S)NC(C)=O | 7%
CCOc1ccccc1C(=O)NC1(C(F)(F)F)C(=O)Nc2c1c(=O)[nH]c(=O)n2-c1ccc(F)cc1 (configuration not stated) | -29%
CC(C)c1ccc(NC(=O)Cn2nnc(C(=O)NCCc3ccccc3)c2N)cc1 | -3%
CC1CCCN(C(=S)SCC(=O)O)C1 (configuration not stated) | -12%
CNC(=O)Nc1ccc(Cn2cc(C(F)(F)F)ccc2=O)cc1 | -10%
CC(OC(=O)c1cc(S(=O)(=O)N(C)C)ccc1N1CCCC1)C(=O)NCc1ccccc1 (configuration not stated) | -2%
CC(C)NS(=O)(=O)c1ccc(OCC(=O)NCc2cccnc2)cc1 | 2%
CN(C(=O)CN1CCN(c2ccccc2F)CC1)C1CCCc2ccccc21 (configuration not stated) | 2%
CC(C)Cn1c(N)c(C(=O)COC(=O)c2nccnc2N)c(=O)n(C)c1=O | -15%
CCC1(c2ccccc2)SCC(c2ccccc2)=NC1=O (configuration not stated) | 0%
CNC(=O)COc1ccc(Nc2nnc(C)c3ccccc23)cc1 | 4%
CC(C)CCNC(=O)c1csc2c1CCCCC2 | -9%
CC(=O)N1CCN(CCN2C(C)=CC(=C(C#N)C#N)C=C2C)CC1 | -29%
COc1ccc(C(C)=O)cc1COc1ccc(F)cc1 | -5%
CCN(CC)CCn1c(NS(=O)(=O)c2ccc(Cl)cc2)nc2ccccc21 | 8%
Cc1csc(-c2cccnc2)n1 | -29%
CCOC(=O)Nc1sc(C(=O)N(C)C)c(C)c1C(=O)OCC | 0%
NC(=O)C1CC(=O)N(c2ccc(OCC(=O)Nc3ccc(Cl)cc3)cc2)C1 (configuration not stated) | -5%

Continuation.
SMILES | VDR inhibitor
CC(=O)Nc1c(O)nc(SCC(=O)Nc2nnc(SCc3ccccc3)s2)[nH]c1=O | ?
CCCn1c(-c2ccc(F)cc2)cnc1SCC(=O)O | -21%
Cc1ccc([N+](=O)[O-])cc1S(=O)(=O)Nc1ccc(C(=O)NCC2CCCO2)cc1 (configuration not stated) | 0%
O=C(NCCC1CCCCN1S(=O)(=O)c1ccc(F)cc1)C(=O)NCc1cccnc1 (configuration not stated) | -16%
Cc1ccc(N/C=C2\C(=O)N(c3ccc(F)cc3F)C(c3cccnc3)S2(=O)=O)cc1 (configuration not stated) | -14%
Cn1c(=NC(=O)c2ccc(F)cc2)sc2cc(Br)ccc21 | 18%
CC(NCC(=O)Nc1ccccc1C(=O)NC1CC1)c1cccc(C(F)(F)F)c1 (configuration not stated) | -8%
Cc1cc(C)cc(-n2c(C)cc(C(=O)C(=O)Nc3ccccc3F)c2C)c1 | 17%
CCOC(=O)C(NC(C)=O)(Nc1ccc(S(=O)(=O)Nc2cc(C)on2)cc1)C(F)(F)F (configuration not stated) | 20%
Cc1ccc(-c2nc(NC(=O)CSc3cc(C)c4ccccc4n3)ns2)cc1 | 1%&7%
CC(C)(C)OC(=O)N(Cc1ccccc1)Cc1ccccc1OCc1ccc(NC(=O)C2CCC2)cc1 | -17%
C[C@H](NC(=O)[C@H]1N2C(=O)c3ccccc3C2SC1(C)C)C(=O)N1CCC[C@H]1CO (some centres not stated) | -16%
O=C(CSc1ncn[nH]1)Nc1ccccc1C(=O)O | -2%
COc1ccc(/C=C(\NC(=O)c2ccccc2)C(=O)N/N=C/c2ccncc2)cc1 | -3%
CC(=O)Nc1ccc(N/C=C/C(=O)c2ccc(C)o2)cc1 | -10%
CSc1cc(C)c(OCC(=O)Nc2ccc(NC(C)=O)cc2)c(C)c1 | -6%
CCO[C@H]1OC(C(=O)O)=C[C@@H](C)[C@@H]1CCCO | 18%
COc1ccc(CC(=O)NNC(=O)c2cnccn2)cc1 | 1%
COc1ccccc1N1CCN(C2CCCN(Cc3ccc(Cl)cc3)C2)CC1 (configuration not stated) | 12%
N#Cc1ccccc1NC(=O)COC(=O)CCc1ccccc1 | -15%
O=S(=O)(NC1=NCCC1)c1ccc(F)cc1F | -16%
COc1ccc(NC(=O)COC(=O)c2cccn2C)cc1S(=O)(=O)N1CCCCC1 | 6%
Cc1cc(SC(C)C(=O)Nc2ncc(Cl)cc2Cl)nc2ccccc12 (configuration not stated) | -16%
Cc1c([N+](=O)[O-])c([N+](=O)[O-])nn1CC(=O)NCCc1ccccc1 | -9%
Cc1ccc(NC(=O)N2CCCC2C(=O)Nc2c(C)cc(C)cc2C)cc1 (configuration not stated) | -15%

An excerpt of these results, in markdown:
| compound | VDR inhibitor |
| --- | --- |
| CC(=O)N1CCN(CCN2C(C)=CC(=C(C#N)C#N)C=C2C)CC1 | -29% |
| C[C@H](NC(=O)[C@H]1N2C(=O)c3ccccc3C2SC1(C)C)C(=O)N1CCC[C@H]1CO (some centres not stated) | -16% |
| COC(=O)c1nnn(-c2nonc2N)c1CSc1nnc(C)s1 | 6% |
| CCOC(=O)c1c(NC(=O)CSc2nnc(-c3cccnc3)n2Cc2ccco2)sc(C)c1C | 4% |
| O=C(COc1ccccc1Cl)Nc1ccc(C(=O)c2ccc(C(=O)O)cc2)cc1 | -6% |

Next part
SMILES | VDR inhibitor
CCOC(=O)c1ccc2c(c1)nc(SCC(=O)NC(C)C)n2CC | 16%
CC(C)CN(CC(C)C)c1nnc(N)s1 | -2%
CC(C)c1ccc(C2c3[nH]c4ccccc4c3C[C@H]3C(=O)N(c4ccccc4C(=O)N4CCC(C(=O)O)CC4)C(=O)N23)cc1 (some centres not stated) | -7%
CCCCNC(=O)C1(N2C(=O)c3ccccc3C2=O)CCCC1 | -10%
CCC(C)NC(=O)N[C@@H](Cc1ccccc1)C(=O)O (some centres not stated) | 3%
CN1CCN(c2ncnc3ccc(-c4ccccc4C#N)cc23)CC1 | 2%
O=C(CN1C(=O)CSCC1=O)Nc1ccc2c(c1)OCO2 | -14%
O=c1cc(/C=C/c2ccccc2)oc2ccccc12 | -4%
CN(N)c1nc(N2CCCC2)nc(N2CCCC2)n1 | -6%
COc1cccc(CNC(=O)C2CCN(Cc3cc4ccccc4n3Cc3ccccc3)CC2)c1OC | 15%
COC(=O)c1ccc(S(=O)(=O)NNC(=O)c2ccc(S(=O)(=O)N3CCCCC3)cc2)cc1 | -16%
Cc1cc(O)c(/C=N/OCc2ccc(Cl)cc2Cl)c(=O)o1 | -8%
CCCCNC(=O)c1nn(-c2ccc(C)cc2)c(=O)c2c1c1ccccc1n2C | -14%
Cc1cc2nnc(SCC(=O)Nc3ccc(F)c(Cl)c3)n2c2ccccc12 | -3%
Cc1c(C)n(CCc2ccccc2)c2ncnc(NCCO)c12 | 14%
CCOC(=O)c1c(C)[nH]c(C(=O)COC(=O)/C=C/c2ccc(OC(F)F)cc2)c1C | -15%
O=c1cnc2cnc(Nc3ccccc3)nc2n1Cc1ccc(F)cc1 | -5%
Cn1c(N)c(C(=O)COc2ccc(C#N)cc2)c(=O)n(C)c1=O | -16%
COc1ccc(C(C)NC(=O)c2ccncc2)cc1 (configuration not stated) | 1%
COc1ccc(C(CC(=O)Nc2cccc(C)c2C)N2Cc3ccccc3C2=O)cc1 (configuration not stated) | 3%
COc1ccc(C(=O)N2CCC3(CCCN(C(=O)Nc4cccc(F)c4)C3)CC2)cc1 | -8%
CC(=O)c1ccc(/C=C/c2nc3ccccc3n2C)o1 | 1%
O=C(c1ccc2c(=O)n(Cc3ccc4c(c3)OCO4)c(=S)[nH]c2c1)N1CCN(Cc2ccccc2)CC1 | 4%

Screens: PubChem, National Center for Advancing Translational Sciences (NCATS)
